NPSR antagonist = antagonists of human neuropeptide S receptor cAMP signaling; CHO-NPSR cells, cAMP TR-FRET, antagonist mode; 220,000 compounds, 1% hits; Potency, µM (top dose mostly 38.3 µM), for the others: at the top dose activity change, negative = inhibition, usual class: inhibitors; also: % is scaled to controls: 0 for no effect and ±100 for the full control effect; nearly all actives have a fitted effect of over 50% in size; many of its hits are not listed in these tables
Target sequence (Q6W5P4 whole entry, looked up): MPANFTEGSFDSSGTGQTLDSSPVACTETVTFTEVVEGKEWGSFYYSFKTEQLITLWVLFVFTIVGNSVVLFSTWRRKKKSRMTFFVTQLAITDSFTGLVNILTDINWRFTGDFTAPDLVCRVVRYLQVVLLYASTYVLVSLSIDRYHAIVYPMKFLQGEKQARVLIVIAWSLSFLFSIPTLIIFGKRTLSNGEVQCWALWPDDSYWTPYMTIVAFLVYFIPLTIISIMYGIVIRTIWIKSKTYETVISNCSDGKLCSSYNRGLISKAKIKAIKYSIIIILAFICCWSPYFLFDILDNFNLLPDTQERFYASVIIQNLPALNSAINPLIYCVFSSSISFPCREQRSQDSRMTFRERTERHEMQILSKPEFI
Epigenetic derep = derepresses silenced GFP reporter in murine cells; murine LDR cells, GFP reporter derepression, 30 h; Potency, µM (highest dose often 53.9 µM), for inactives: at the top dose GFP activation, usual class: activators; 280,000 compounds, 0.2% hits; AID 1865; also: % of control where 0% means no effect; nearly all actives have a fitted effect of over 60% in size
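Readout is the number of GFP-expressing murine LDR cells, counted by cytometry following washing. Cells were treated with compound for 30 h at 37 C; the stably integrated CMV-GFP locus is normally silent.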
aGal spleen mod = alpha-galactosidase A (human) modulation. Potency, µM (titrated, usually from 80 µM), inactives show top-dose activity change, negative = inhibition, actives largely listed as inhibitors. human spleen homogenate, 4MU-alpha-Gal fluorescence, 40 min. AID 2107. 240,000 compounds, 0.008% hits;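 also: 0% = enzyme with vehicle and -100% = no enzyme basal signal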
Target sequence (P06280 32-429 limits assumed): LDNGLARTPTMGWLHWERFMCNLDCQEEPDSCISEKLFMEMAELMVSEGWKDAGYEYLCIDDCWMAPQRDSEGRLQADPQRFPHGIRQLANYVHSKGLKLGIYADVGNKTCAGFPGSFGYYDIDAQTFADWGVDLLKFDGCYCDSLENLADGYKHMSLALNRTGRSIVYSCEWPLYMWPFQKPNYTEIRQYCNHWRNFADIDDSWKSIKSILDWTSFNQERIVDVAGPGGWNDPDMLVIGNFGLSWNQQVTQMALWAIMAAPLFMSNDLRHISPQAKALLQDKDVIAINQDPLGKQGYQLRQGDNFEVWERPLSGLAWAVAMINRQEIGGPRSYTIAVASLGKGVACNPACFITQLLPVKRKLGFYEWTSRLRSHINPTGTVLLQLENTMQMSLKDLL
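Human spleen homogenate (1 ug) was the enzyme source, with 4-methylumbelliferyl-alpha-D-galactopyranoside (1 mM final) in pH 5.0 citrate buffer with 0.01% Tween-20. Compounds were titrated; after 40 min at 37C, NaOH/glycine stop, 4-MU fluorescence read; AC50 from Hill fits.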
GAA inh = blocks human lysosomal alpha-glucosidase. AID 1466. P10253. purified human GAA, 4-MU-alpha-glucoside fluorescence. 200,000 compounds, 0.005% hits. Potency, µM (titrated, usually from 76.9 µM), without a hit: top-dose activity change, negative = inhibition, usual class: inhibitors;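 also: plate controls were uninhibited enzyme wells for no effect and no-enzyme background for full effect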
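AC50 values come from Hill fits of compound titrations (up to 77 uM) against 4 nM human enzyme. Substrate 4-methylumbelliferyl-alpha-D-pyranoside at 400 uM, pH 5.0 citrate buffer, 20 min room temperature; fluorescence Ex 365/Em 440 after alkaline stop.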
GAA glycogen = GAA glycogen-cleavage inhibition or activation; 300,000 compounds, 0.38% hits; P10253; recombinant GAA, glycogen substrate, Amplex Red glucose oxidase fluorescence; AID 2100; Potency, µM (highest dose often 76.4 µM), for inactives: at the highest dose activity change, negative = inhibition, most hits filed as inhibitors;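 also: 0% = full enzyme reaction and -100% = no-enzyme basal signal; the screen sought inhibitors and activators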
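Recombinant human alpha-glucosidase (4 nM final) hydrolysed bovine liver glycogen (30 ug) for 40 min at 37 C in pH 5.0 citrate/phosphate with 0.01% Tween-20. Released glucose detected by glucose oxidase/Amplex Red, Ex 573/Em 610 nm. Compounds up to 77 uM; AC50 from Hill fits.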
GAA spleen mod = lysosomal alpha-glucosidase (human) modulation; P10253; human spleen homogenate, 4-MU-alpha-glucoside fluorescence; Potency, µM (titrated, usually from 79.9 µM), for the others: at the top dose activity change, negative = inhibition, actives largely listed as inhibitors; 240,000 compounds, 0.006% hits;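 also: 0% = enzyme with vehicle and -100% = no enzyme basal signal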
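Compounds were titrated against alpha-glucosidase in spleen homogenate at pH 5.0, with 1 mM 4-methylumbelliferyl substrate for 40 min at 37 C. Reactions were quenched with pH 10 NaOH/glycine and fluorescence measured.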
Tau fluor cs = counter-screen for tau fibril formation inhibitors; tau K18 P301L (four-repeat tau fragment) Alexa594 fluorescence, heparin fibrillization; Potency, µM (titrated, usually from 57.7 µM), without a hit: at the highest dose activity change, negative = decrease; 280,000 compounds, 0.93% hits; also: % is scaled to controls: 0 for no effect and ±100 for the full control effect; nearly all actives have a fitted effect of over 55% in size
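Human K18 P301L tau (15 uM unlabeled plus 0.24 uM Alexa 594-labeled, final) in 100 mM sodium acetate pH 7 was mixed with compound and 20 uM heparin and incubated 6 hr at 37 C.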
An asterisk follows results filed as active; ? = inconclusive; nt = no result given; & = joins results of further samples; [ ] = remark or other dose. Calls follow the shape of the dose curve; as a rule, active = well fitted curve in the direction sought with a large enough effect; inconclusive = small, poorly fitted or top-dose-only effect, or another doubt; inactive = no such curve, though single readings can be large; an effect the other way counts as inactive or inconclusive. Potency is read from the fitted curve at half-maximal effect.

Every second line gives: aGal spleen mod | Epigenetic derep | NPSR antagonist | Tau fluor cs | GAA glycogen | GAA spleen mod | GAA inh
CCC(OC(=O)c1cccs1)C(=O)NC1CCCCC1 (configuration not stated)
  -13% | 1.5% | 3%[46.1 µM] | -6% | 8% | 6% | 0%
CN(C)CCNC(=S)Nc1ccc(Br)cc1
  4% | -0.9% | 14% | 5% | -5% | -10% | 5%
CC(=O)Nc1ccccc1OCc1cnc(Cl)s1
  -8% | -1.1% | 9% | -7% | 6% | -6% | 1%
CC(C)(C)C(=O)CSc1nc2c(c(-c3cccs3)c1C#N)CCC2
  -10% | -1.8% | -59% | -18% | -2% | -1% | -5%
O=C(CN=C1NS(=O)(=O)c2ccccc21)OCC(=O)c1cc(F)ccc1F
  -8% | -1.6% | 10% | -7% | 0% | 3% | -2%
Nc1ncc(-n2cncn2)c(-c2ccc(Cl)cc2)n1
  -13% | 2.1% | 12% | -3% | 23% | -14% | 12%
O=C(OC(C(=O)NCC1CCCO1)c1ccccn1)c1cccs1 (configuration not stated)
  -19% | 0.7% | -5%[46.1 µM] | -5% | 5% | -21% | -8%
CCOC(=O)C1CCN(C(=O)Cc2ccc(C)cc2)CC1
  2% | -0.3% | -8%[46.1 µM] | -12% | 9% | -1% | 2%
Cc1ccc(NC(=O)Cn2ccsc2=N)cc1S(=O)(=O)N(C)C
  0% | ? | 10% | 0% | 5% | 5% | 3%
O=[N+]([O-])c1ccc(C2CCCC/C2=N\OCc2cccc(F)c2)c([N+](=O)[O-])c1 (configuration not stated)
  -20% | -1.4% | ? | ? | -1% | -4% | -5%
O=C(Nc1nc2ccccc2n1CCN1CCCC1)c1ccc(Cl)cc1
  -1% | -4.8% | -7%[46.1 µM] | -6% | -1% | -9% | -5%
O=C(N/N=C/c1ccncc1)c1ccc(COc2cccc3cccnc23)cc1
  -3% | -0.6% | -3% | -26% | -7% | -5% | -2%
CCCc1nnc(NC(=O)CN2C(=O)c3ccccc3S2(=O)=O)s1
  3% | -0.8% | -7%[46.1 µM] | 2% | 2% | -19% | -14%
CN(C)c1ccc(NC(=O)CN2CCC(C(=O)c3ccc(F)cc3)CC2)cc1
  -8% | 1.0% | -13%[7.67 µM] | -12% | -13% | -8% | -1%
CCC(C)Oc1nc2ccccc2nc1NS(=O)(=O)c1ccccc1 (configuration not stated)
  -3% | 1.0% | ? | -4% | -6% | -8% | -5%
CCCN1CCN(S(=O)(=O)c2ccc3c(c2)OCCO3)CC1
  2% | -0.4% | 5% | -8% | 8% | 0% | 0%
COCCNC(=O)C1c2cc(OC)c(OC)cc2C(=O)N(C)C1c1cccnc1 (configuration not stated)
  -9% | -1.4% | -10%[46.1 µM] | -3% | 9% | -5% | -3%
COc1ccc(Nc2nc(Nc3ccc(OC)cc3)nc(SC3=NCCS3)n2)cc1
  11% | -0.8% | ? | 14µM*[quencher] | -3% | 3% | 3%
COc1cc(/C=N/NC(=O)c2nc(C)cc(C)n2)ccc1O
  0% | 9.8% | 3%[46.1 µM] | -2% | -29% | -7% | -1%
CC(/C=N\NC(=O)CN1CCN(S(=O)(=O)c2ccc(C)cc2)CC1)=C\c1ccccc1
  2% | 0.0% | -13% | -7% | -22% | -9% | ?
CNC(=O)NC(=O)C(C)OC(=O)CCCc1nc2ccccc2s1 (configuration not stated)
  8% | ? | 5% | -3% | 1% | 3% | -7%
Cn1cccc1C(=O)C(=O)Nc1cccc(Cl)c1Cl
  3% | -1.0% | -5%[46.1 µM] | -3% | 4% | -1% | 4%
CCc1ccc(/C=C/C(=O)c2ccc(S(=O)(=O)N(C)C)cc2)cc1
  7% | -1.0% | -11% | -4% | -3% | 3% | 0%
COc1ccc(CCN2CC(C(=O)NCc3ccco3)CC2=O)cc1OC (configuration not stated)
  2% | ? | 8%[46.1 µM] | -8% | 2% | -6% | ?
CCOC(=O)C1CCN(c2nc(-c3ccc(C)cc3)nc3ccccc23)CC1
  2% | 1.9% | -58% | -18% | -4% | -5% | -35%
C=CCNC(=O)NC(=O)COC(=O)c1nc2nccc(C)n2n1
  3% | -0.4% | 9% | 4% | 16% | 4% | 3%
CCOc1ccc(CN2CCN(S(=O)(=O)c3ccc(NC(C)=O)cc3)CC2)cc1OC
  2% | 2.2% | -12%[46.1 µM] | -12% | 0% | -10% | 0%
CCC(C)NCCOCCOc1ccc(Br)cc1 (configuration not stated)
  0% | 1.1% | 8% | -6% | -5% | 1% | 3%
Cc1cccc(-n2cc(CN3CCN(Cc4nccn4C)CC3)c(-c3cccc(F)c3)n2)c1
  1% | 0.5% | 33% | -5% | 14% | -8% | -15%
O=C(Nc1ccc(Cl)cc1)OCc1ccccn1
  2% | -1.0% | -3%[46.1 µM] | -10% | -1% | 2% | -12%
CCOC(=O)Cc1nnc(NC(=O)C(CC)Sc2nnc3c4ccccc4n(C)c3n2)s1 (configuration not stated)
  2% | -1.1% | -12%[46.1 µM] | -10% | -4% | -9% | -4%
CCN1CCN(C(=O)Nc2ccc(OC)cc2OC)CC1
  8% | -1.6% | 10% | -8% | 14% | 9% | 15%
CC(C)NC(NC(=O)Cc1ccccc1)C(Cl)(Cl)Cl (configuration not stated)
  -2% | -0.3% | -12%[46.1 µM] | 10% | 2% | -2% | -7%
Clc1ccc(-c2nnn(Cc3nc4ccccc4s3)n2)cc1
  1% | -2.9% | -15%[46.1 µM] | -21% | -7% | -4% | 0%
Nc1ccc(CCNc2ncnc3c2ncn3C2OC(CO)C(O)C2O)cc1 (configuration not stated)
  17%&7% | -0.2%&5.3% | ? | ? | nt | 3%&-9% | nt
COC(=O)N/N=C/c1c(C)cc(C)cc1C
  -8% | -0.9% | 12% | -3% | 4% | -16% | -5%
Cc1ccc(/C(O)=C2\C(=O)C(=O)N(CCc3c[nH]c4ccccc34)C2c2cccnc2)cc1 (configuration not stated)
  10% | 2.1% | -16% | 1% | 5% | 2% | -1%
CC(C)NC(=S)NCc1cccnc1
  -5% | -0.1% | 14% | -9% | -6% | -5% | 0%
O=S(=O)(/C=C/c1ccccc1)NC1CCCCCCC1
  3% | 1.1% | -16% | -14% | -3% | 4% | -8%
COc1cccc(NC(=O)c2cc(-c3ccncc3)nc3c(C)cc(C)cc23)c1
  -17% | 2.2% | -46% | ? | 14% | -12% | 8%

Reprinted at random: three entries already listed, in no set order.
Every second line gives: aGal spleen mod | Epigenetic derep | NPSR antagonist | Tau fluor cs | GAA glycogen | GAA spleen mod | GAA inh
CCOC(=O)C1CCN(c2nc(-c3ccc(C)cc3)nc3ccccc23)CC1
  2% | 1.9% | -58% | -18% | -4% | -5% | -35%
Cc1cccc(-n2cc(CN3CCN(Cc4nccn4C)CC3)c(-c3cccc(F)c3)n2)c1
  1% | 0.5% | 33% | -5% | 14% | -8% | -15%
CCOC(=O)Cc1nnc(NC(=O)C(CC)Sc2nnc3c4ccccc4n(C)c3n2)s1 (configuration not stated)
  2% | -1.1% | -12%[46.1 µM] | -10% | -4% | -9% | -4%

Next part.
Every second line gives: aGal spleen mod | Epigenetic derep | NPSR antagonist | Tau fluor cs | GAA glycogen | GAA spleen mod | GAA inh
COc1ccc(CCNC(=O)CN(c2cccc([N+](=O)[O-])c2)S(C)(=O)=O)cc1
  -7% | -0.3% | 9% | -6% | 10% | -2% | -1%
Cc1csc(=S)n1-c1ccccc1
  -13% | 6.6% | -4%[46.1 µM] | -3% | 2% | -11% | 1%
CC(C)C(NC(=O)c1ccccc1)C(=O)N/N=C\c1ccco1 (configuration not stated)
  3% | -1.1% | -5% | -7% | -1% | -5% | -10%
Cc1ccccc1NS(=O)(=O)c1ccc(NC(=O)c2nc3ncccn3n2)cc1
  11% | -4.0% | -7%[46.1 µM] | -6% | -3% | 5% | -8%
c1ccc(-n2ncc3c(N4CCN(c5ccccn5)CC4)nc(N4CCCCC4)nc32)cc1
  -3% | 0.0% | 8%[46.1 µM] | -7% | 4% | -7% | -5%
O=c1cc(O)c2c(=O)[nH]c(=O)n(-c3ccccc3)c2[nH]1
  9% | 0.0% | 3%[46.1 µM] | -9% | 3% | -9% | -3%
CC(C)n1cnc2c(NCc3ccccc3)nc(NCCO)nc21
  -3%&17% | 2.1% | nt | -15% | nt | 0%&6% | nt
COCCn1c(SCc2cccnc2)nnc1-c1ccco1
  -10% | -1.0% | -6%[46.1 µM] | -4% | -11% | -2% | -11%
COCCNc1nc(-c2ccccc2)nc2ccccc12
  1% | 4.5% | -11% | 5%[2.34 µM] | -12% | -3% | -4%
COc1ccccc1C(N)=S
  1% | 3.8% | 13% | 6% | -8% | 1% | 2%
COC(=O)/C=c1/s/c(=C(/C#N)C(=O)NCc2ccccc2)n(-c2ccccc2)c1=O
  -1% | 4.8% | 1%[46.1 µM] | -7% | -7% | -4% | -16%
O=C(O)C1CCCN1C(=O)Nc1ccc(F)cc1 (configuration not stated)
  6% | 0.0% | 1%[46.1 µM] | 8% | 12% | -1% | -2%
O=C(CSc1nnc(-c2cccnc2)n1Cc1ccccc1)NCc1ccccc1
  -1% | 2.3% | -14%[46.1 µM] | -14% | -4% | -6% | -4%
CC1(C)OC(=O)C(=CNCC(=O)NCC(=O)O)C(=O)O1
  9% | -0.9% | -2%[46.1 µM] | -6% | 4% | -11% | 2%
COc1cccc(CNCc2ccccn2)c1OC
  3% | 1.3% | -9%[46.1 µM] | 4% | 2% | 1% | 4%
CCCCc1oc2ccccc2c1C(=O)c1cc(I)c(OCCN(CC)CC)c(I)c1
  10% | 1.3% | ? | -17%&-20%&-17%&-18%&-16% | -7% | 2% | -18%[15.4 µM]
Fc1ccccc1CSc1nnc(-c2cnccn2)n1Cc1ccco1
  -2% | -0.8% | -16%[46.1 µM] | -3% | 7% | -1% | 1%
CCOC(=O)c1sc(NS(=O)(=O)c2cc(C)ccc2C)nc1C
  4% | 2.1% | -17%[46.1 µM] | -12% | 7% | 2% | 2%
CCc1ccc(N2C(=O)CC(NNc3nc4ccccc4s3)C2=O)cc1 (configuration not stated)
  4% | 1.1% | -2%[46.1 µM] | -19% | ? | 5% | 0%
O=C(Nc1ccccc1)N1CCC(n2c(=O)[nH]c3ccccc32)CC1
  -5% | -0.2% | -8%[46.1 µM] | -16% | -6% | -3% | -5%
CCOc1ccccc1NC(=S)NCCc1ccc(F)cc1
  2% | -1.5% | -23% | -15% | -22% | 2% | -2%
CCc1nnc(NC(=O)c2ccc(S(=O)(=O)N3CCCCC3C)cc2)s1 (configuration not stated)
  -15% | 0.7% | 2%[46.1 µM] | -1% | -1% | 3% | 0%
Cc1ccc(C2=[N+]([O-])C(C)(C)N(O)C2(C)C)cc1
  -9% | -1.0% | 14% | -3% | ? | -11% | ?
COc1cc2c(cc1OC)C(C(=O)Nc1cccc(C)n1)C(c1cccnc1)N(C)C2=O (configuration not stated)
  -9% | 0.0% | -14%[46.1 µM] | -3% | -2% | 3% | ?

Source: PubChem (National Center for Advancing Translational Sciences (NCATS))

The list is partial (hit frequency here may not be typical).
